Source: PubChem BioAssay (several laboratories)
HNF4A DNA FP: change in binding of human HNF4 alpha to DNA. P41235. 360,000 compounds, 0.3% hits. activity change, % at 10 µM. HNF4a-FITC DNA binding, fluorescence polarization, 1 h; in the data active = activity change above about 30%, passing the limit was not always enough;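 also: controls were the assay level and a saturating level of protein; the project sought stronger binding though the title names inhibitors; some compounds called inactive have numbers as strong as hits; positive values seem to mean higher polarization but the record does not say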
Target sequence (P41235 whole entry, looked up): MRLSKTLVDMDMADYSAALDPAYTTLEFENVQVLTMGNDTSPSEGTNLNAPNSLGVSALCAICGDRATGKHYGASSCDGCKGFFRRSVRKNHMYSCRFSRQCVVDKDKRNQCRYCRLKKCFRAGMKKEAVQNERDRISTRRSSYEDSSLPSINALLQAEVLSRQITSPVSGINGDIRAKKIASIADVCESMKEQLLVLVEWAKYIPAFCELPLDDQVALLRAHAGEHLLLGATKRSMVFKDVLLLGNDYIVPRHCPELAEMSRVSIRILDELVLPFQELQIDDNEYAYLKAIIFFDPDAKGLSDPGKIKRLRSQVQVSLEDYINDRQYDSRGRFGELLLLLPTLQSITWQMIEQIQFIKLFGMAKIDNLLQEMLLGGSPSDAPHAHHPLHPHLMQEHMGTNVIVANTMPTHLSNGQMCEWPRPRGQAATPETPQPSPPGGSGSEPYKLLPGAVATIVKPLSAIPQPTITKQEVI
MLL AF4-AF9 inh: MLL-AF4/AF9 protein interaction inhibition; P42568; AlphaScreen, biotin-AF4 peptide binding to FLAG-AF9; inhibition, % at 10 µM; 350,000 compounds, 0.47% hits; AID 651704;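 active = every replicate reaching a set inhibition limit, whatever the replicate mean, cut at about 25% in these data; inconclusive = mean inhibition reaches that limit but some replicates miss it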;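 also: 0% = plate neutral control median and 100% = total signal loss; the record names both 10 and 1 µM as test concentration; the first replicate is given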
Ecoli rRNA inh: selective bacterial rRNA inhibition in E. coli; E. coli WT GFP vs humanized-ribosome RFP mutants, fluorescence, 24 h; stronger effect = lower value; DMSO median 0, no signal -100; GFP signal change (wild-type ribosome), % (no concentration beside the values); 350,000 compounds, 1.6% hits;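 active = significant combined selectivity score with lowered wild-type GFP, culture density cut under 30%, mutant RFP and density less affected; inactive = any of these conditions unmet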; also: one replicate is shown; some compounds called inactive have numbers as strong as hits
Ecoli growth: inhibitors of Escherichia coli growth. OD600, 23 h; stronger effect = lower value. OD600 absorbance (no concentration beside the values). 330,000 compounds, 0.21% hits. AID 1053175;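 active = OD600 absorbance below the run mean of sample wells minus 3.6 SD, in any replicate, cut at about 0.56 in these data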;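 also: stock transfer was 300 nL into about 60 µL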
ALR inh: human ALR oxidase inhibition via reduced H2O2 | P55789 | purified ALR, DTT oxidation, H2O2 HRP-luminol luminescence | inhibition, % (test concentration not listed) | 290,000 compounds, 3.8% hits | AID 485317;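 active = mean and each replicate at 75% or more; inconclusive = only one of the two met; inactive = neither met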;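 also: stock transfer was 7.5 nL into about 7.5 µL; 0% = neutral wells and 100% = wells with inactivated enzyme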
Target sequence (P55789 whole entry, looked up): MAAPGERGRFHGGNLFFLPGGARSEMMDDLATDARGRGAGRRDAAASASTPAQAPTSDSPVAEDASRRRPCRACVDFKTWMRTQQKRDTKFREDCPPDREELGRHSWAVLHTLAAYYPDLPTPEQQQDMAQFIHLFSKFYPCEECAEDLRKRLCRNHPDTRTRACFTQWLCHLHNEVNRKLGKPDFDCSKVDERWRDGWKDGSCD
Vif A3G: inhibitors of Vif binding to APOBEC3G peptide, primary screen, biochemical, TR-FRET, GST-Vif 1-94, biotin-A3G peptide, dose response retest (AID 1117319) | TR-FRET GST-Vif / biotin-A3G peptide binding; higher % means a stronger effect; test concentration not given here; strong numbers were not always called active | 260,000 compounds, 0.57% hits | inhibition, %; hits with a dose series show IC50 in µM;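 active = above the screen mean plus three standard deviations and confirmed in dose response; inconclusive = results disagree or hit not tested in dose response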;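 also: Vif residues 1-94 fused to GST binding biotinylated APOBEC3G peptide 110-148; 0% = full assay without inhibitor and 100% = GST in place of GST-Vif; retest series ran down from 100 µM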
FGF22 binding: shifts melting point of recombinant human FGF22; Q9HCT0; recombinant FGF22 thermal shift, SYPRO orange fluorescence; percent of sucrose octasulfate shift, DMSO zero; calls only at 9.99 µM; 340,000 compounds, 1.5% hits; AID 651658;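 active = melting point raised past a set limit in the mean and every replicate; inconclusive = no clear call; three in four hits are not shown here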
Target sequence (Q9HCT0 whole entry, looked up): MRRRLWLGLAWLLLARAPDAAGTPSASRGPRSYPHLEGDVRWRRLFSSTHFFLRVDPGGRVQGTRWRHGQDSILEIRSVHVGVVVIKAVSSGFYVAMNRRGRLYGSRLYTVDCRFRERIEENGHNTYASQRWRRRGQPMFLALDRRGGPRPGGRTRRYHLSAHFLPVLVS
Ecoli rRNA inh OD600: recorded beside Ecoli rRNA inh, whose call it bears; OD600 change, %; measured here: OD600 growth;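 optical density of the mix in the first replicate; 0 = DMSO median and -100 = no signal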
Ecoli rRNA inh RFP: second read-out of Ecoli rRNA inh, no call of its own (marks repeat the call); RFP signal change, %; measured here: RFP humanized mutant strains;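 first replicate; 0 = DMSO median and -100 = no signal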
Numbers without * were called inactive; i = inactive; ? = inconclusive; · = no result given; + = active, no number; & = joins results of further samples.

#	HNF4A DNA FP	Compound	MLL AF4-AF9 inh	Ecoli rRNA inh	Ecoli rRNA inh OD600	Ecoli rRNA inh RFP	Ecoli growth	ALR inh	Vif A3G	FGF22 binding
1	4.0	COc1ccc(C(=O)NCc2nnc(SCC(=O)N3CCOCC3)o2)cc1	-1.4	15	13	1.1	0.64	-2	1%	i
2	·	C[C@H](CO)N1C[C@H](C)[C@H](CN(C)Cc2ccc(C(F)(F)F)cc2)Oc2ccc(NC(=O)Nc3ccc(F)cc3)cc2C1=O	1.1	-3	-32	20	·	·	·	i
3	-3.2	Nc1cccc(Nc2ncnc3ccccc23)c1	1.2	2	11	0.5	0.67	99*	·	·
4	-3.8	CCOC(=O)c1nnc(-c2cccs2)nc1Oc1ccccc1C(=O)OC	·	·	·	·	0.73	41	-4%	·
5	-1.7	O=C(O)/C=C/c1cccc2c1OCCO2	-45	0	-2	-9.4	0.7	-3	?	i
6	-3.2	O=C(COn1nnc2ccc(Cl)cc21)NC12CC3CC(CC(C3)C1)C2	·	·	·	·	0.71	-10	?	·
7	·	Cc1noc(C)c1NC(=O)NCC[C@H]1CC[C@@H](NC(=O)c2ccccc2)[C@@H](CO)O1	3.4	2	3	-1.2	·	·	·	i
8	-5.0	Cc1ccc(NNC(=S)Nc2ccc(C(C)C)cc2)c(C)c1	-3.6	-3	-4	6.1	0.72	17	-1%	i
9	-3.0	COCCOc1ccc(C(F)(F)F)cc1NC(=O)COC(=O)Cc1c[nH]c2ccccc12	1.1	·	·	·	0.68	-2	?	i
10	1.9	CCOc1ccc(CC2S/C(=N/c3ccccn3)NC2=O)cc1 (centres undefined)	·	·	·	·	0.7	-3	-2%	·
11	40*	Cc1cnc(CNC(=O)c2ccc(OC3CCN(C(=O)C4CC4)CC3)cc2)cn1	-1.6	3	0	1.3	0.68	-2	-8%	i
12	-2.7	Cc1cc(C)c2c(=O)n3c(nc2c1)C(Cc1ccc(O)cc1)NC(=O)c1cc2ccccc2cc1-3 (centres undefined)	-0.3	11	16	-1.8	·	·	·	i
13	3.5	O=C(CSc1nnc(C2COc3ccccc3O2)o1)Nc1ccc(F)cc1Cl (centres undefined)	-0.2	-9	-9	-0.8	0.63	-3	-5%	i
14	-1.0	Cc1[nH]c2ccccc2c1-c1csc(NC(=O)CN2CCOCC2)n1	8.0	5	1	4.9	0.68	-6	·	i
15	2.5	COc1ccc(SCCN2CC[C@@H](C)CCC2=O)cc1	-4.7	-13	-19	-2.1	·	-4	·	i
16	·	C[C@H](CO)N1C[C@H](C)[C@@H](CN(C)C(=O)Nc2cccc3ccccc23)Oc2ccc(NC(=O)Nc3cccc4ccccc34)cc2CC1=O	1.2	0	-6	0.7	·	·	·	i
17	·	CN(C)C(=O)C[C@H]1C[C@H]2c3cc(NS(=O)(=O)c4ccccc4)ccc3O[C@H]2[C@@H](CO)O1	-0.5	-1	0	0.4	·	·	·	i
18	·	COc1cccc(NC(=O)N(C)C[C@@H]2Oc3cc(-c4ccccc4OC)ccc3S(=O)(=O)N([C@H](C)CO)C[C@H]2C)c1	-0.2	-3	-22	8.4	·	·	·	i
19	-1.9	O=C(COC(=O)c1cccs1)NCCN1C(=O)CSC1=O	·	·	·	·	0.7	1	1%	·
20	·	C[C@H]1CN([C@@H](C)CO)C(=O)Cc2cc(NC(=O)CCC(F)(F)F)ccc2O[C@H]1CN(C)Cc1ccccc1	-3.1	-5	0	0.1	·	·	·	i
21	7.5	O=C(/C=C/c1ccco1)NC(=S)Nc1cc(C(F)(F)F)ccc1N1CCOCC1	5.2	8	7	1.3	·	4	32%	i
22	0.8	COc1ccc(C(=O)Nc2cc(C)cc(C)c2)cc1S(=O)(=O)N1CCOCC1	·	·	·	·	0.7	-15	12%	·
23	6.4	C/C(=C\[C@@H](NP(=O)(c1ccccc1)c1ccccc1)c1ccccc1)CO[Si](c1ccccc1)(c1ccccc1)C(C)(C)C	-1.7	1	7	-2.6	·	-11	·	i
24	·	O=C(C[C@@H]1CC[C@H]2[C@@H](COC[C@@H](O)CN2S(=O)(=O)c2ccc(Cl)cc2)O1)N[C@H]1CCN(Cc2ccccc2)C1	0.5	0	-1	-3.4	·	·	·	i
25	-1.6	O=C(O)CCN1C(=O)/C(=C2\C(=O)N(Cc3ccc(F)cc3)c3ccccc32)SC1=S	5.9	8	4	0.0	0.69	3	2%	i
26	1.1	CCOC(=O)CC(=O)CSc1ccc2nnc(-c3ccccc3)n2n1	-28	8	14	16	0.66	29	18%	i
27	·	COCC(=O)Nc1ccc2c(c1)C(=O)N(C)C[C@@H](OC)[C@H](C)CN(Cc1ccccn1)[C@@H](C)CO2	-0.7	1	4	-1.4	·	·	·	i
28	0.9	CCCN1CCN(S(=O)(=O)c2ccc3c(c2)OCCO3)CC1	-1.5	12	12	1.1	0.67	-12	?	i
29	4.3	CCc1ccc(OCC(=O)c2c(O)c3ccccc3oc2=O)cc1	-0.4	-20	-20	-0.7	0.63	30	0%	·
30	1.6	COc1cc(/C=C/C(=O)OCC(=O)N2CCC(C)CC2)ccc1OCC#N	1.8	0	-19	-0.3	0.69	0	-5%	i

Look-ups from the results shown:
MLL AF4-AF9 inh with compound 15 : -4.7
Ecoli rRNA inh with compound 23 : 1
Ecoli rRNA inh OD600 with compound 14 : 1

Entries of single compounds, quoted from the list.
O=C(CSc1nnc(C2COc3ccccc3O2)o1)Nc1ccc(F)cc1Cl (centres undefined) reads HNF4A DNA FP = 3.5; MLL AF4-AF9 inh = -0.2; Ecoli rRNA inh = -9; Ecoli rRNA inh OD600 = -9; Ecoli rRNA inh RFP = -0.8; Ecoli growth = 0.63; ALR inh = -3; Vif A3G = -5%; FGF22 binding = i
COc1cc(/C=C/C(=O)OCC(=O)N2CCC(C)CC2)ccc1OCC#N reads HNF4A DNA FP = 1.6; MLL AF4-AF9 inh = 1.8; Ecoli rRNA inh = 0; Ecoli rRNA inh OD600 = -19; Ecoli rRNA inh RFP = -0.3; Ecoli growth = 0.69; ALR inh = 0; Vif A3G = -5%; FGF22 binding = i

Going on with the list.
#	HNF4A DNA FP	Compound	MLL AF4-AF9 inh	Ecoli rRNA inh	Ecoli rRNA inh OD600	Ecoli rRNA inh RFP	Ecoli growth	ALR inh	Vif A3G	FGF22 binding
31	31&30	CCC(C)Sc1cc(-c2nc3cc(C)ccn3c2NC2CCCCC2)ccc1OC (centres undefined)	8.0&11	-1	-7	3.9	0.72	·	·	i
32	3.1	C=CCn1c(SCC(=O)Nc2ccc(C(=O)O)cc2)nc2scc(-c3ccccc3)c2c1=O	0.7	·	·	·	0.7	·	-4%	·
33	-0.3	Cc1ccc(CN(CC(=O)NCc2ccccn2)S(=O)(=O)c2ccccc2)cc1	2.5	-10	-25	0.7	0.66	-4	·	i
34	-1.0	CSCCC(NC(=O)c1ccc(Cl)cc1)C(=O)OCC(=O)Nc1cc(Cl)ccc1C (centres undefined)	-7.7	·	·	·	0.68	·	2%	i
35	-5.0	O=C1Nc2ccc(F)cc2C12SCCS2	6.2	-11	-10	-5.7	0.65	38	25%	i
36	-1.3	C/C(=N\NC(=O)c1cccc(S(=O)(=O)N2CCOCC2)c1)c1ccc(OCC(=O)N(C)C)cc1	-2.5	10	10	-0.6	·	22	4%	i
37	0.3	Cc1nnc2c(NCCc3ccccc3)nc3ccccc3n12	0.3	5	17	2.3	0.7	6	-6%	i
38	1.5	COCC1CCN(C(=O)c2cc(COc3cc(C)c(Cl)c(C)c3)on2)C1 (centres undefined)	-2.5	0	4	-0.8	0.71	-1	·	i
39	0.8	CC(=Cc1ccccc1)C=C1SC(=S)N(CCCC(=O)Nc2ccc(C(=O)O)c(O)c2)C1=O	14	-45	-51	-1.4	·	·	·	+
40	2.6	CCOC(=O)c1ccccc1NC(=O)/C(C)=C/C(=O)O	·	·	·	·	0.73	·	3%	·
41	-4.7	CC12CCC(C(=O)Nc3ccccc3Cl)(C(Br)C1=O)C2(C)C (centres undefined)	·	·	·	·	0.66	·	7%	·
42	-2.1	COc1ccc(C=NN=C2c3ccccc3-c3ccccc32)cc1O	5.2	-9	-19	-6.9	·	·	-3%	i
43	3.2	Fc1ccc(-c2csc(Nc3ccccn3)n2)c(F)c1	-1.1	-6	3	0.8	0.7	-8	·	i
44	0.3	O=C(Nc1c(F)cc(F)cc1Br)c1cc(-c2ccc(O)cc2)on1	1.9	-41	-62	-12	0.73	99*	3%	i
45	1.3	O=C(c1ccco1)N1CCN(Cc2nc3ccccc3c(=O)n2-c2ccc(F)cc2)CC1	·	·	·	·	0.73	2	-1%	·
46	4.7	CN(Cc1c(F)cccc1Cl)C(=O)c1ccc(NC(=O)CC2SC(N3CCCCC3)=NC2=O)cc1 (centres undefined)	3.2	-1	-11	8.6	0.71	-3	·	i
47	0.2	COCCOc1cc(NC(=O)CS(=O)CC(=O)N(C)C)c(Cl)cc1Cl (centres undefined)	-0.8	20	4	0.2	0.69	1	·	·
48	-1.0	O=C(Nc1ccc([N+](=O)[O-])cc1)c1cn(-c2ccccc2)nc1-c1cc2ccccc2o1	-10	0	-12	-0.5	0.7	-13	-3%	i
49	-0.4	COc1ccc(-c2noc(CCC(=O)N3CCN(c4ccccc4)CC3)n2)cc1	-2.2	3	1	4.3	0.71	·	·	i
50	·	C[C@@H]1CN([C@@H](C)CO)C(=O)c2cc(NS(=O)(=O)c3cccs3)ccc2O[C@@H](C)CCCCO[C@H]1CN(C)Cc1ccccc1	2.5	-1	0	1.3	·	·	·	i
51	3.0	CC1=NN(c2nc(-c3ccc(C)cc3)cs2)C(=O)C1N=Nc1ccccc1O (centres undefined)	0.3	5	6	0.2	0.7	-8	27%	i
52	1.5	Cc1nc(COc2ccccc2Cl)sc1-c1ccnc(N)n1	0.6	-18	-29	-5.9	0.64	0	8%	i
53	-4.8	OCc1nc2ccccc2n1Cc1ccc(Cl)cc1	-3.1	12	9	0.6	0.65	-10	·	i
54	-0.5	Cn1nnnc1SCC(=O)Nc1ccccc1C(N)=O	-0.1	19	20	2.5	0.68	-8	7%	i
55	·	COCC(=O)Nc1ccc2c(c1)OC[C@@H](C)N(C(=O)Cc1ccccn1)C[C@@H](C)[C@@H](OC)CN(C)C2=O	-1.5	3	3	-0.2	·	·	·	i
56	-2.2	COc1ccc(OC)c(S(=O)(=O)Nc2cccc(-c3ccc(N4CCCCCC4)nn3)c2)c1	-0.4	15	2	1.8	0.73	-2	-72%	i
57	-13	O=C(NCc1cccc(F)c1)c1[nH]c(C(F)(F)F)nc1-c1ccccc1	-2.1	-36	-45	-9.4	·	·	·	i
58	1.6	COC(=O)c1sccc1NC(=S)Nc1ccc(F)cc1F	-2.0	21	13	-0.5	0.68	0	2%	i
59	-0.5	Cc1nnc(NC(=O)CCC(=O)NC2CCCCCCC2)s1	-0.2	5	9	0.4	0.65	-15	-3%	i

Not all compounds are listed; count on the stated rates, not on these rows.
